ALR H2O2 inh – blocks human ALR sulfhydryl oxidase activity; P55789; purified ALR, DTT oxidation, H2O2 HRP-luminol luminescence; inhibition, % (test concentration not listed); 3.8% of 290,000 active; AID 485317;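 active = mean and each replicate at 75% or more; inconclusive = only one of the two met; inactive = neither met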;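 also: stock transfer was 7.5 nL into about 7.5 µL; 0% = neutral wells and 100% = wells with inactivated enzyme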
Target sequence (P55789 whole entry, looked up): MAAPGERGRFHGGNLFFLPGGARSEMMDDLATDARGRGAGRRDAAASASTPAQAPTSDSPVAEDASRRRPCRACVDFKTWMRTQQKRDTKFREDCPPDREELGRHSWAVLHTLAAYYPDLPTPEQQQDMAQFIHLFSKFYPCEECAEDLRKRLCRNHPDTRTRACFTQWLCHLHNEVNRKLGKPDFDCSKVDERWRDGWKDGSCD
RanGTP-Impb inh – inhibitors of RanGTP-importin-beta interaction, primary screen, biochemical, FRET, CFP-Ran, YFP-importin-beta, homogeneous; 1.1% of 300,000 active; AID 2216; cell-free CFP-Ran/YFP-importin-beta FRET ratio; inhibition, % (test concentration not listed);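 active = most replicates above 15%; inconclusive = exactly half above 15%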;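 also: 0% = DMSO wells and 100% = Ran loaded with GDP instead of GTP; wells of about 40 µL received 100 nL stock; the first replicate is given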
Beta apoptosis – beta cell apoptosis inhibition; INS-1E cytokine-induced death, ATP luminescence, 48 h; percent of positive-control rescue, neutral wells zero; protection from apoptosis, % (concentration not given with the values); 0.8% of 300,000 active; AID 435005;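 active = all replicates at 75% or more, or half of them and the mean; inconclusive = half reach 75% but not the mean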;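 also: 0% = cytokine-treated negative control wells and 100% = positive control rescue; higher means more ATP so stronger rescue from cytokine killing; wells of about 40 µL received 100 nL stock; the first replicate is given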
T cruzi repl – T. cruzi replication inhibition; T. cruzi beta-gal in NIH3T3, luminescence, 90 h; inhibition, % (test concentration not listed); 1.4% of 300,000 active; AID 1885;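 active = mean inhibition across valid replicates above about 55%, limit read from the data; inconclusive = mean below that limit but half or more replicates reach it; inactive = mean below it, under half of replicates reach it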;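 also: signal also drops with host cell toxicity which is not excluded here; 0% = plate median of DMSO wells and 100% = zero luminescence signal; higher percent means less beta-gal luminescence so fewer parasites; stock transfer was 50 nL into about 50 µL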
FGF22 binding – binders of recombinant human FGF22 by thermal shift; SYPRO orange fluorescence; percent of sucrose octasulfate shift, DMSO zero; calls only at 9.99 µM; 1.5% of 340,000 active; AID 651658;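 active = melting point raised past a set limit in the mean and every replicate; inconclusive = no clear call; three in four hits are not shown here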
Target sequence (Q9HCT0 whole entry, looked up): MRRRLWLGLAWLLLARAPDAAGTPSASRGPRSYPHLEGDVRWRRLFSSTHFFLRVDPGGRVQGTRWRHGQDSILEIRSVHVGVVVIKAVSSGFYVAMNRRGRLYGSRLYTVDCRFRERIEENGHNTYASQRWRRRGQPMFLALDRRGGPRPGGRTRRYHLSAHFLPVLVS
Ecoli rRNA inh – inhibitors of bacterial rRNA selective over humanized ribosomes. AID 720706. E. coli WT GFP vs humanized-ribosome RFP mutants, fluorescence, 24 h; active compounds read low; DMSO median 0, no signal -100. 1.6% of 350,000 active. GFP signal change (wild-type ribosome), % (no concentration beside the values);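 active = significant combined selectivity score with lowered wild-type GFP, culture density cut under 30%, mutant RFP and density less affected; inactive = any of these conditions unmet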; also: one replicate is shown; some compounds called inactive have numbers as strong as hits
Calb FLC – C. albicans growth modulation with fluconazole; C. albicans CaCi-2 (fluconazole-resistant clinical isolate) + fluconazole, Alamar Blue growth, 48 h; growth inhibition, % (concentration not given with the values); AID 1979; 0.57% of 300,000 active;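 active = most replicates above 75%; inconclusive = exactly half above 75%; inactive = most below 75%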;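 also: all wells also contain fluconazole at 8 µg/ml as a sub-toxic cotreatment; 0% = median of DMSO wells and 100% = median of geldanamycin control wells; wells of about 8 µL received 7.5 nL stock; the first replicate is given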
AF4-AF9 inh – MLL-AF4/AF9 protein interaction inhibition. P42568. AlphaScreen, biotin-AF4 peptide binding to FLAG-AF9. inhibition, % at 10 µM. 0.47% of 350,000 active. AID 651704;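 active = every replicate reaching a set inhibition limit, whatever the replicate mean, cut at about 25% in these data; inconclusive = mean inhibition reaches that limit but some replicates miss it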;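 also: 0% = plate neutral control median and 100% = total signal loss; the record names both 10 and 1 µM as test concentration; the first replicate is given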
Target sequence (P42568 whole entry, looked up): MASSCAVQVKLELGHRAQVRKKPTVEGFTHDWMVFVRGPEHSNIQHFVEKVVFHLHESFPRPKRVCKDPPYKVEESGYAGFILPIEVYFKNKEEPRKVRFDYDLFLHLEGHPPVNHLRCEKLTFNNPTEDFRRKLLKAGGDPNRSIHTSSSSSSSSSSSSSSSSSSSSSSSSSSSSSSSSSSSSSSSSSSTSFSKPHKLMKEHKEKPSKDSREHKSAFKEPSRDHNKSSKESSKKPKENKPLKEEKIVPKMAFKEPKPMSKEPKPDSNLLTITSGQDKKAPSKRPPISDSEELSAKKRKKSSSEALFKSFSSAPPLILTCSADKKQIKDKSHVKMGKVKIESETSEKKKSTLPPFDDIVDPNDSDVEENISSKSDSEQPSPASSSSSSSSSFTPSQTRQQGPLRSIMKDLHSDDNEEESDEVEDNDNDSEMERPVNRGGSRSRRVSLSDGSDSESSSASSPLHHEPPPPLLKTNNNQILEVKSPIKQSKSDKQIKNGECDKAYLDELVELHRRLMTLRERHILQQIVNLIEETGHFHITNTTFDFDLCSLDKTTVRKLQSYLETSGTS
Ecoli rRNA inh OD600 – also measured in Ecoli rRNA inh; calls as there; OD600 change, %; measured here: OD600 growth;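 optical density of the mix in the first replicate; 0 = DMSO median and -100 = no signal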
Ecoli rRNA inh RFP – second read-out of Ecoli rRNA inh, no call of its own (marks repeat the call); RFP signal change, %; measured here: RFP humanized mutant strains;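 first replicate; 0 = DMSO median and -100 = no signal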
Numbers without * were called inactive; i = inactive; u = inconclusive; x = not tested or not shown. This is a subset; the hit share may differ from the screen's.

Order of results – ALR H2O2 inh	Ecoli rRNA inh	FGF22 binding	Beta apoptosis	AF4-AF9 inh	Ecoli rRNA inh OD600	Calb FLC	Ecoli rRNA inh RFP	RanGTP-Impb inh	T cruzi repl
> Cn1c(=O)c([N+](=O)[O-])c(NC2CCS(=O)(=O)C2)c2ccccc21 (stereo not drawn)
→ 0	-1	i	-5	-6.6	-4	1	-1.8	-2.5	6
> COc1ccc(OC)c(NC(=O)CSc2nc3n[nH]c(C)c3c(=N)n2-c2cccc(Cl)c2C)c1
→ -1	3	i	4	-12	4	46	0.8	0.8	10
> COc1ccc(NC(=O)CN(c2ccccc2OC)S(=O)(=O)c2cccs2)cc1Cl
→ 5	-17*	i	4	-1.1	-0.6*	x	7.2*	x	x
> Cc1csc(CNc2ncnc3ccc(-c4cccnc4)cc23)c1
→ 3	-41	i	1	5.8	-45	x	-10	x	x
> Cc1ccc(NC(=O)c2cc([N+](=O)[O-])ccc2N2CCCC2)cc1
→ -3	-11	i	7	12	-10	-18	-1.7	2.5	-6
> O=C(O)CSc1nc2sc3c(c2c(=O)n1-c1ccccc1)CCC3
→ 52	-6	i	-2	-28	-12	5	-0.3	2.2	0
> CCOC(=O)CCC(NC(=O)CCC(=O)NC(CCC(=O)OCC)C(=O)OCC)C(=O)OCC (stereo not drawn)
→ 9	x	x	x	x	x	10	x	0.3	-10
> Cn1c(CN2CCOCC2)nc2cc(NC(=O)c3ccccc3Cl)ccc21
→ -3	x	x	-2	x	x	12	x	-1.3	-4
> CCN(CC(=O)Nc1ccc(NC(C)=O)cc1)C(=O)c1ccccc1SCC(=O)N1CCCC1
→ -25	19	i	0	1.3	8	x	2.2	x	x
> O=C(/C(=C/c1ccccc1)n1cncn1)c1ccc(Cl)cc1Cl
→ 71	x	x	-4	x	x	-4	x	-1.2	45
> Cc1nc2ccc(NC(=O)CSc3ccccc3)cc2s1
→ x	-8	i	0	-4.0	-2	x	-2.3	x	x
> COC(=O)c1cccc2nc3c(C(C)O)cccc3nc12 (stereo not drawn)
→ 11	x	i	x	0.9	x	21	x	-0.6	-5
> COc1ccc(C/C(O)=C(\C#N)c2nc3ccccc3[nH]2)cc1OC
→ -2	x	x	-5	x	x	19	x	3.9	-43
> Cc1ccc(C(C(=O)NC2CCCC2)N(C(=O)CNC(=O)c2cccs2)c2cccnc2)o1 (stereo not drawn)
→ -4	x	x	-4	x	x	41	x	10	-2
> CCN1C(=O)/C(=C/c2ccc(N3CCCC3)cc2)NC1=S
→ 97*	x	x	7	x	x	3	x	-27	-3
> CCOC(=O)c1c(C)sc2c1N(C(=O)CN(CC)CC)c1ccccc1S2
→ -1	x	x	-3	x	x	8	x	-4.4	38
> COc1ccc(O)c(/C=N/NC(=O)CN2CCS(=O)(=O)CC2)c1
→ 47	-1	i	-5	10	2	28	2.0	-1.2	-2
> CCN(CC)C(=O)c1ccc2c(=O)n(Cc3cccc(Br)c3)c(=S)[nH]c2c1
→ -6	5	i	5	0.3	9	6	1.6	-0.3	6
> O=C(NCc1nc2ccccc2[nH]1)C1=C[C@@H](c2ccc(C(F)(F)F)cc2)C[C@@H](OCCCCO)O1
→ 1	-3	i	-7	-4.6	-6	8	-1.3	-0.2	33
> CCc1ccc(OCC(=O)O/N=C(\N)c2ccncc2)c(Br)c1
→ 3	-43	i	-7	-1.5	-70	0	-8.2	2.9	0
> COC(=O)c1c(C)nc(C)c(C(=O)OC)c1-c1ccsc1
→ -6	-40*	i	4	x	-16*	11	-2.6*	-0.2	x
> COC(=O)c1sccc1NC(=O)Nc1ccccc1C
→ 11	0	i	-4	-1.0	-3	-7	-0.5	x	x
> O=C(Cn1nnc(-c2ccccc2)n1)N/N=C/c1cc([N+](=O)[O-])c(Cl)cc1Cl
→ -2	5	i	-6	-3.5	4	5	0.1	4.6	4
> Cc1ccc(S(=O)(=O)/N=C(\c2ccc(Cl)cc2)N2CCOCC2)cc1
→ -9	x	x	-4	x	x	-3	x	-1.4	-12
> COc1ccc(/C=N/n2cncn2)cc1COc1ccc(NC(C)=O)cc1
→ 5	x	x	x	x	x	3	x	3.6	-9
> C[n+]1ccccc1C1CCCC/C1=N\Nc1ccc([N+](=O)[O-])cc1[N+](=O)[O-] (stereo not drawn)
→ -3	x	x	4	x	x	-4	x	2.6	12
> CCCn1nnnc1SCC(=O)N(C(C)C)C(C)C
→ 1	x	x	-2	x	x	0	x	6.7	-4
> O=C(O)CCC(=O)NNC(=O)c1cccs1
→ x	13	i	-7	2.0	12	5	1.9	-1.6	-18
> CNC(=S)N1CCC(NC(=O)C(Cc2ccc(OC)cc2)NC(C)=O)CC1 (stereo not drawn)
→ 3	1	i	-19	-3.2	-2	-12	-0.2	-1.1	-9
> CC(=O)NC(Cc1ccc(C(C)C)cc1)C(=O)NC1CCN(c2nc(C)cc(C)n2)CC1 (stereo not drawn)
→ -5	x	x	-1	x	x	-9	x	-1.3	7
> NC(=O)NCC(=O)N1CCC(C(O)(c2ccccc2)c2ccccc2)CC1
→ -2	2	i	-6	-3.0	12	-6	3.3	0.9	-11
> CCCCNC(=O)CSc1nc2ccc(NC(=O)CSc3nnc(N)s3)cc2s1
→ -6	1	i	6	3.6	-5	-15	-5.2	u	-22
> CN(C)c1ccc(S(=O)(=O)N2CCCCC2)cc1NC(=O)CN1C(=O)NC(C)(c2ccccc2)C1=O (stereo not drawn)
→ -2	-7	i	0	-10	-1	x	3.2	5.2	11
> CSc1ccccc1NC(=O)c1ccc(N2CC3CC(C2)c2cccc(=O)n2C3)c(NC(=O)c2ccncc2)c1 (stereo not drawn)
→ 2	0	i	-7	-11	3	-2	4.9	-2.3	-11
> Cc1ccc(SCCN2CCN(CC(C)C)CCC2=O)cc1
→ x	4	i	x	-5.4	3	-7	0.3	8.5	0
> Cc1ccc(S(=O)(=O)N(C)CCCC(=O)Nc2cc(C)ccc2C)cc1
→ x	6	i	-7	-3.7	-5	11	1.3	-1.1	-4
> OCC1(CCc2ccccc2)CCN(Cc2cccn2-c2cccnc2)CC1
→ -2	12	i	-1	2.6	4	-9	0.7	-0.1	18
> CN(C)c1cccc(C(=O)OCC(=O)N(C)c2ccccc2)c1
→ 4	0	i	-4	5.0	-4	-11	-1.8	2.9	-7
> COC(=O)c1cc(NC(=S)NCc2ccc(Cl)cc2)cc(C(=O)OC)c1
→ -1	x	x	7	x	x	1	x	-4.1	6
> COc1ccc(CCNC(=O)c2cc3c(=O)n4ccccc4nc3n(CCN3CCOCC3)c2=N)cc1
→ -37	-5	i	64	-1.2	-5	5	-2.7	25*	7
> O=C(CN(Cc1ccc(F)cc1)C(=O)CNS(=O)(=O)c1ccc(F)cc1)NCc1ccco1
→ -2	-1	i	0	0.6	9	-11	0.3	-1.3	5
> Cc1cccc(C)c1NC(=O)CNC(=O)CCC(=O)N1CCOCC1
→ 3	10	i	-1	-17	7	2	-2.3	2.0	-7
> CC(=O)N1CCN(C(=O)CCN(c2ccccc2)S(=O)(=O)c2ccc(C)cc2)CC1
→ -4	-1	x	1	-4.6	6	-3	-0.7	-2.2	0
> O=C(CSc1nnc(C2CC2)n1-c1ccccc1)NCc1ccco1
→ 2	x	x	0	x	x	-1	x	2.1	-1
> C=CCc1cccc(/C=N/NC(=O)CNc2cccc3ccccc23)c1O
→ -10	x	i	x	-11	x	92*	x	7.8	38
> CC(=O)Nc1nc2ccccc2n1Cc1ccccc1Cl
→ 16	-23*	i	-7	-3.2	-8.4*	0	-3.6*	-1.9	47
> COc1cc2c(cc1OC)C1=C(C#N)CCC(=O)N1CC2
→ -2	x	x	-4	x	x	-1	x	-0.3	-15
> Cc1ccc(S(=O)(=O)N2CCN(C(=O)CSc3nc(N)cc(=O)[nH]3)CC2)c(C)c1
→ 7	11	i	x	-2.9	14	-9	1.5	-7.9	8
> CC(C)(C)NC(=O)Cn1c(SCC(=O)NC2CC2)nc2ccccc21
→ -14	5	i	-4	1.8	9	-4	0.7	-0.4	-9
> CS(=O)(=O)N1CCC(C(=O)c2cccc(Cl)c2)CC1
→ -6	x	x	-2	x	x	9	x	0.7	-12
> Cc1ccc(-c2nn(-c3ccccc3Cl)cc2C(=O)NCC2CCCO2)cc1 (stereo not drawn)
→ -2	-9	i	-1	-8.6	-11	-3	-0.3	0.4	12
> COc1ccc(Nc2nc(C(F)(F)F)nc(C)c2C#N)cc1
→ x	x	x	1	x	x	25	x	-0.8	-2
> CCOC(=O)c1c(-c2ccc(F)cc2)csc1NC(=O)C1CCCO1 (stereo not drawn)
→ -3	-13	i	-1	-5.6	-18	3	-10	0.3	20
> CCn1c(SCC(=O)N2CCN(c3ccccc3)CC2)nc2c(c1=O)SC(C)C2 (stereo not drawn)
→ 68	-8	i	0	10.0	-19	1	-0.4	2.6	4
> O=S(=O)(NCc1ccc(F)cc1)c1ccc2c(c1)OCCO2
→ -14	x	x	-2	x	x	-9	x	2.4	10
> O=C(Nc1nc(-c2cccc3ccccc23)cs1)c1cnccn1
→ -1	x	x	3	x	x	-2	x	4.0	-12
> C=CCSc1nc2ccccc2c(=O)n1C1CCOC(C)(C)C1 (stereo not drawn)
→ 1	1	i	-1	3.7	5	4	-2.3	4.8	-3
> COc1ccc2[nH]cc(CCNC(=O)C3CCCNC3=O)c2c1 (stereo not drawn)
→ 12	8	i	-3	1.1	10	-4	0.2	4.1	-15
> COc1cccc(CN2C(=O)[C@@H]3Cc4c([nH]c5ccccc45)C(C)(C)N3C2=O)c1
→ -9	-18	i	1	7.2	-34	13	-14	2.1	12
> Cc1ccc(N2C(=O)[C@@H]3[C@H](C2=O)[C@H]2C=C(C(=O)c4ccccc4)C=CN2[C@@H]3C(=O)c2ccc(Cl)cc2)cc1
→ -7	-1	i	-5	0.6	1	11	4.8	u	-9

(list continues)
Order of results – ALR H2O2 inh	Ecoli rRNA inh	FGF22 binding	Beta apoptosis	AF4-AF9 inh	Ecoli rRNA inh OD600	Calb FLC	Ecoli rRNA inh RFP	RanGTP-Impb inh	T cruzi repl
> CCn1c(=O)c2cc(S(=O)(=O)NCc3ccccc3)ccc2n(CC)c1=O
→ -5	x	x	x	x	x	25	x	3.0	-7
> O=C(NCc1ccco1)Nc1ccc(OC(F)(F)F)cc1
→ -14	-7	i	3	1.0	-10	-6	-2.6	-1.2	x
> Cc1ccc2c(c1)sc[n+]2Cc1ccccc1
→ 11	21	i	-6	-26	8	4	-5.1	-0.1	55*
> CCOC(=O)c1cccc(NC(=O)CCNS(=O)(=O)c2ccc3c(c2)CCN3C(=O)CC)c1
→ -4	x	x	x	x	x	-6	x	0.8	-7
> CCOCCCn1cnc2c([nH]c3cc(OC)ccc32)c1=O
→ x	x	x	-15	x	x	-2	x	1.9	-1
> COc1ccccc1NS(=O)(=O)c1cccc(NC(=O)Cc2cccs2)c1
→ -14	-3	i	1	-15	-1	-6	-1.0	-6.3	-30
> CCCCc1ccc(NC(=S)NCc2cccnc2)cc1
→ -1	-19	i	6	0.3	-28	-12	7.5	-1.2	10
> O=C(CNCc1cccs1)Nc1ccc(N2CCCCCC2)cc1
→ 99*	-36	i	0	42*	-50	10	-2.2	-0.1	15
> CCC(=O)c1ccc(N2CCCC2)c(F)c1
→ -1	x	x	2	x	x	-32	x	-0.4	-4
> Nc1nnc(N2CCCCCC2)s1
→ 66	x	x	-3	x	x	3	x	9.2	5
